# Source: PubChem BioAssay (National Center for Advancing Translational Sciences (NCATS))
# VDR inhibitor = blocks the human vitamin D receptor; VDR-SRC2-3 peptide fluorescence polarization, 2 h; Potency, µM, for inactives: max response, negative = inhibition, actives largely listed as inhibitors; 0.93% of 400,000 active; active = well fitted inhibition curve with a large enough effect; inconclusive = small, poorly fitted or top-dose-only effect, or another doubt; inactive = no such curve, though single readings can be large or run the other way; note: series mostly up to about 120 µM
# Target sequence (P11473 whole entry, looked up): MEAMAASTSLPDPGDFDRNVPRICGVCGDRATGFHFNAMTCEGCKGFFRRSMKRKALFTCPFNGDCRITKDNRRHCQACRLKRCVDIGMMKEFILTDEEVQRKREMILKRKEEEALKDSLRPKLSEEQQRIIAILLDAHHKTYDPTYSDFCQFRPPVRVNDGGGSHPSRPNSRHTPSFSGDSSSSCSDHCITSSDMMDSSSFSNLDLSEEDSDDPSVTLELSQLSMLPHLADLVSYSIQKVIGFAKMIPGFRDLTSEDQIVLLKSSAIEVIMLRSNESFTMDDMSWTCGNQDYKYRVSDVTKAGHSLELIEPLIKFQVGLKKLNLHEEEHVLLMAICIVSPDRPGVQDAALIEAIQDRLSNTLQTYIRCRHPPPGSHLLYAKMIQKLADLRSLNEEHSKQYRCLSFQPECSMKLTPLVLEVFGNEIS
#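 Compounds are added to VDR with labelled SRC2-3 coactivator peptide and held 2 h at room temperature. Inhibition of the VDR–peptide interaction is then read as a change in fluorescence polarization.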
# * = called active by the depositor; u = inconclusive; & = joins results of further samples. % is set by controls: 0 for no effect and ±100 for the full control effect; potency is the fitted concentration of half-maximal effect. An excerpt. The share of hits here may be higher or lower than overall.
VDR inhibitor	molecule
-26%	NC(=O)CC(NC(=O)c1ccccc1)c1ccc(N2CCCCCC2)c([N+](=O)[O-])c1 (centres undefined)
-25%	CCc1ccc(OCCNC(=O)c2ccccc2SCc2ccc(F)cc2)cc1
-2%	CCN1CCN(CC(O)COCC2COc3ccccc3O2)CC1 (centres undefined)
-4%	CCN1C[C@@H]2[C@@H]3C(=O)N(C)C(=O)[C@@H]3[C@](CC)(C1=O)N2C(=O)c1ccc(C(F)(F)F)cc1
-28%	CC(/C=N\NC(=O)c1cc(C)oc1C)=C\c1ccccc1
-3%	NS(=O)(=O)c1ccc(CCNc2cc(=O)n(Cc3ccc(F)cc3)c(=O)[nH]2)cc1
-15%	CN(C)CCNC(=O)c1onc(CSc2ccc(F)cc2)c1C(=O)NCCN(C)C
23%	O=C(c1ccccc1[N+](=O)[O-])N1CCCC(C(=O)N2CCCCCC2)C1 (centres undefined)
-10%	Cc1nn2c3ccccc3nc2n(C)c1=O
1%	CCOC(=O)c1c(NC(=O)CSc2nnc(-c3ccc(Cl)cc3)o2)sc2c1CCC2
-15%	C=CCn1c(SCC(=O)NC2CCCCC2)nnc1-c1ccccn1
-5%	CCCCCN(C(=O)CCC(=O)OCc1ccccc1C(F)(F)F)c1c(N)n(CCCC)c(=O)[nH]c1=O

# Given as comma-separated lines: 4 of the compounds above
SMILES,VDR inhibitor
CN(C)CCNC(=O)c1onc(CSc2ccc(F)cc2)c1C(=O)NCCN(C)C,-15%
O=C(c1ccccc1[N+](=O)[O-])N1CCCC(C(=O)N2CCCCCC2)C1 (centres undefined),23%
Cc1nn2c3ccccc3nc2n(C)c1=O,-10%
CCOC(=O)c1c(NC(=O)CSc2nnc(-c3ccc(Cl)cc3)o2)sc2c1CCC2,1%

# Next section
VDR inhibitor	molecule
15%	CCOc1ccc(NC(=S)N2CCC(NC(=O)C3CCCCC3)CC2)cc1
1%	CCCCN(C(=O)CCC(=O)Nc1cc(C)on1)C(C(=O)NC(C)(C)CC)c1cccc(OC)c1OC (centres undefined)
u	CC(C)N1CCC2(CC1)N=C(c1ccc3c(c1)OCO3)CC(c1cc(Cl)ccc1O)N2 (centres undefined)
2.8µM*	Cc1ccc(S(=O)(=O)/C=C\C#N)cc1
-11%	O=C(NC1CC1)C1CCN(C2CCN(C(=O)CCOc3ccccc3)CC2)CC1
-11%	CCOC(=O)C1(Cc2cccc(Cl)c2)CCCN(C(=O)c2cc(C(C)C)nn2C)C1 (centres undefined)
15%	O=C(Nc1nnc(-c2cccnc2)s1)c1cccs1
15%	Cc1cccc(N2CCN(C(=O)c3c(C)oc4ncnc(N5CCCCC5)c34)CC2)c1C
4%	Cn1c(CSCCOc2ccccc2)n[nH]c1=S
-4%	CCCN1C[C@H](CSC)C[C@H]2c3cccc4[nH]cc(c34)C[C@@H]21
-1%	O=C(Cn1c(NCCCO)nc2ccccc21)c1cccc(Br)c1
-6%	COc1ccccc1C(c1nnnn1CCc1ccccc1)N1CCN(c2ccccc2)CC1 (centres undefined)
-6%	CC(=O)c1ccc(NC(=O)C(C)OC(=O)C2CC(=O)N(c3ccc4c(c3)OCCO4)C2)cc1 (centres undefined)
2%	C=CCn1c2ccccc2c2nnc(SCc3[nH]c(=O)[nH]c3C(=O)CCCCC(=O)OCC)nc21
27%	CC(C)(C)c1ccc(OCCCC(=O)Nc2cccc(S(=O)(=O)N3CCOCC3)c2)cc1
u	COc1cccc(C(=O)CSc2nnc(CNS(C)(=O)=O)n2-c2ccc(C)cc2)c1
2%	COc1cc2c(c(OC)c1OC)-c1ccc(OC)c(=O)cc1[C@H](NC(C)=O)CC2
18%	O=C(CSCc1ccc(Cl)cc1)N/N=C/c1ccccc1
-16%	COC(=O)c1ccc(CNC(=O)COC(=O)CCC2CCCC2)cc1
18%	O=C(c1ccco1)N1CCN(C(=O)c2cnn3c2NC(c2cccs2)CC3C(F)(F)F)CC1 (centres undefined)
-3%	O=C(OCc1ccc(Br)cc1F)c1cc2ccccc2oc1=O
4%	CCOC(=O)N1CCC(NC(=O)CSc2cc(=O)n(CC)c3ccccc23)CC1
-17%	CCCCNC(=O)c1onc(CSc2cccc(C)c2)c1C(=O)O
15%	Cc1nnc(SCC(=O)Nc2ncc3c(n2)CC(c2ccccc2)CC3=O)s1 (centres undefined)
7%	O=C(c1ccc(Cl)cc1Cl)N1CCN(c2ccc(N3CCOCC3)nn2)CC1
-15%	O=C(c1cccc(Cl)c1)N1CCC2(CC1)NCCc1[nH]cnc12
-9%	COc1cc(NC(=O)C2CC(=O)N(Cc3ccco3)C2)c(OC)cc1Cl (centres undefined)
7%	CC1(C)S[C@@H]2[C@H](NC(=O)[C@H](NC(=O)N3CCN(S(C)(=O)=O)C3=O)c3ccccc3)C(=O)N2[C@H]1C(=O)O
0%	O=C(NCCCNC(=O)c1ccco1)c1ccco1
19%	CCOC(=O)c1c(C)nc2sc3c(=O)n(-c4ccc(OC)cc4)nnc3c2c1-c1ccc(OC)cc1
-23%	COc1ccc2c(c1)OC[C@H]1[C@H]2N2C(=O)CN(Cc3ccco3)C(=O)[C@@]2(C)[C@H]1c1ccccc1
-16%	NC(=O)c1c(NC(=O)c2ccccc2Cl)sc2c1CCC2
-9%	Nc1nonc1-n1nnc(C(=O)N/N=C/c2ccccn2)c1CNc1ccccc1
-18%	CC(C)CCN(C(=O)C1=COCCO1)c1c(N)n(Cc2ccccc2)c(=O)[nH]c1=O
5%	CCC(=O)N1CCCc2cc(S(=O)(=O)CCC(=O)Nc3ccccc3C)ccc21
-19%	Cc1ccc(NS(=O)(=O)c2ccc3nc(-c4ccccc4)[nH]c3c2)c(Br)c1

# 3 of the entries above in order of the VDR inhibitor value, high to low:
structure | VDR inhibitor
O=C(c1ccccc1[N+](=O)[O-])N1CCCC(C(=O)N2CCCCCC2)C1 (centres undefined) | 23%
CCCN1C[C@H](CSC)C[C@H]2c3cccc4[nH]cc(c34)C[C@@H]21 | -4%
COc1ccccc1C(c1nnnn1CCc1ccccc1)N1CCN(c2ccccc2)CC1 (centres undefined) | -6%

# (next part)
VDR inhibitor	molecule
-12%	CCOC(=O)c1ccc(S(=O)(=O)N2CCC(C(=O)Nc3nnc(C)o3)CC2)cc1
1%	C/C=C/C1=Cc2ccccc2C(C(C(=O)OC)C(=O)OC)N1C(=O)OC (centres undefined)
-17%	O=C(NNC(=S)NC(=O)c1cn(-c2ccccc2)nc1-c1ccccc1)c1ccncc1
26%	COc1ccc(-c2cc(-c3ccccc3)nc3c2COc2ccc(F)cc2-3)cc1
7%	N#CCCN(C(=O)COC(=O)CCC(=O)c1cccs1)c1ccccc1
-6%	CCn1nc(C)cc1C(=O)NC1CCCc2c1cnn2-c1ccc(C)c(C)c1 (centres undefined)
-9%	O=C(O)Cc1cn(Cc2ccc(F)cc2)c2ccccc12
5%	Cc1ccc(CSc2nc3cccnc3n2Cc2ccc(C(=O)NCCc3ccccc3)cc2)cc1
-5%	Cc1cccc(C)c1NC(=O)c1ccc(CN2CCc3ccccc3C2)cc1
-11%	Cc1ccc(NC(=O)Cn2c(=O)n(CCC(=O)N3CCc4ccccc4C3)c(=O)c3ccccc32)cc1
3%	COc1ccc(-c2nc3c(C#N)c[nH]n3c2NC2CCCCC2)cc1
-4%	Cc1ccnc(NS(=O)(=O)c2ccc(N=CC3=C(O)CC(C)(C)CC3=O)cc2)n1
-7%	COc1ccc(/C=C2\Sc3ccc(C(=O)N4CCN(Cc5ccccc5)CC4)cc3N(C)C2=O)cc1OC
-19%	CC(Oc1ccc2c(=O)c(-c3ccc(Cl)cc3)c(C(F)(F)F)oc2c1)C(=O)O (centres undefined)
7%	N#CCSc1ccccc1NC(=O)COc1ccc(-c2nnco2)cc1
-12%	O=C1CC(c2ccc(S(=O)(=O)NC3CC3)cc2)CN1 (centres undefined)
3%	CC(C)(C)NS(=O)(=O)c1cc(C(=O)O)ccc1Cl
-16%	CCCCCSc1nc2sc3c(c2c(=O)n1-c1ccc(OC)cc1)CCN(C(C)=O)C3
7%	O=S(=O)(c1cc(Cl)ccc1Cl)N1CCN(Cc2ccco2)CC1
-13%	CC1CCN(c2ccc(C(=O)NCc3ccc4c(c3)OCO4)cc2[N+](=O)[O-])CC1
-11%	c1ccn(CCc2ccncc2)c1
-25%	CC(=O)NC(Cc1ccc(C)cc1)C(=O)NC1CCN(C(=O)NCc2ccccc2)CC1 (centres undefined)
-16%	COc1ccc(-c2nnc(NC(=O)C(C)C)s2)c(OC)c1
-4%	Cc1ccc(C(OCC(C)(C)C[N+](C)(C)C)c2ccccc2)cc1 (centres undefined)

# In a second layout: results already given
> CC(C)(C)NS(=O)(=O)c1cc(C(=O)O)ccc1Cl
  VDR inhibitor: 3%
> CCCCCSc1nc2sc3c(c2c(=O)n1-c1ccc(OC)cc1)CCN(C(C)=O)C3
  VDR inhibitor: -16%

# Continuation:
VDR inhibitor	molecule
u	O=C(c1ccc(Br)cc1)N1CCCc2ccccc21
-7%	O=C(Nc1cccc(S(=O)(=O)NC2=NCCC2)c1)c1ccc(C(F)(F)F)cc1
-5%	O=[N+]([O-])c1ccc2nc(NN=Cc3ccc(O)cc3)sc2c1
14%	CC1=CCC2C(=O)N(Cc3ccccc3)C(=O)C2C1 (centres undefined)
-3%	O=C(O)C/C(=C\c1ccc(N2CCOCC2)c([N+](=O)[O-])c1)c1nc2ccccc2s1
-3%	O=C(OCc1ccc(COC(=O)c2ccc(O)cc2)cc1)c1ccc(O)cc1
-20%	CN(C)C(=O)CSc1nnc([C@H](Cc2c[nH]c3ccccc23)NC(=O)OC(C)(C)C)o1
-13%	Cn1c(=O)c(N)c2c3c(c(Br)ccc31)C(=O)c1ccccc1-2
u	Cn1c(-c2ccc(C(=O)c3ccccc3)s2)nc2ccccc21
-27%	Cc1nc(N=Nc2ccc(O)cc2)n[nH]1
-2%	COc1ccc(-c2nnc(SCC(=O)Nc3cc(C)on3)n2C)cc1OC
12%	COc1ccc(CCNc2nc(SCc3cccc(Cl)c3)nc3ccccc23)cc1OC
-10%	CCC1CCC(C(=O)NC(C(=O)Nc2ccc3c(c2)OCCO3)C(C)C)CC1 (centres undefined)
7%	Cc1ccc(S(=O)(=O)NCc2ccc(C(=O)N3CCN(c4ccccc4)CC3)cc2)cc1
-25%	Nc1ccc2oc(-c3cc(Br)ccc3Cl)nc2c1
3%	CCc1ccc(CN2CCC(N3CCC(C(=O)N4CCCC4)CC3)CC2)o1
8%	O=C(c1nc2ncccn2n1)N1CCN(c2ccccc2)CC1
0%	Cc1[nH]c2ccccc2c1C(=O)CN1CCN(C/C=C/c2ccccc2)CC1
4%	CC(=O)Nc1ccc(Oc2ccc3nc(C)[nH]c3c2)cc1
5%	CC1CCCCC1NC(=O)Cn1nc(-c2ccccc2)ccc1=O (centres undefined)
-29%	Cc1ccc(C)c(S(=O)(=O)N2C(=S)NC(=O)C2C(C)C)c1 (centres undefined)
-14%	CCOc1c(CNCCSc2nnnn2C)cccc1OC
15%	COc1cccc(C2c3[nH]c4ccccc4c3C[C@H]3C(=O)N(C)CC(=O)N23)c1 (some centres undefined)
2%	CC(C)C(=O)Nc1ccc([N+](=O)[O-])cc1Br
-4%	Cc1nn(C(C)C(=O)NCc2cccc(F)c2)c(=O)c2c1sc1ccccc12 (centres undefined)
3%	O=C(NC(n1ccc(=O)[nH]c1=O)C(Cl)(Cl)Cl)C12CC3CC(CC(C3)C1)C2 (centres undefined)
-7%	C=CCNC(=O)Nc1ccc(Br)cc1Cl
7%	COC(=O)c1c(C)oc2ccc(N(C(=O)Oc3ccccc3)S(=O)(=O)c3ccc(C(C)(C)C)cc3)cc12
-5%	Cc1cc([N+](=O)[O-])nn1CCCC(=O)NCc1ccccc1
-12%	CN(C)S(=O)(=O)c1cccc(NC(=O)c2ccc(N3CCCC3=O)cc2)c1
-11%	COC(=O)c1cc(NS(=O)(=O)c2cccc(Cl)c2)ccc1N1CCOCC1
0%	Cn1c2ccc(CC(=O)O)cc2c2cc(CC(=O)O)ccc21
7%	COc1ccccc1CC(=O)NNC(=O)c1ccco1
2%	O=c1o[nH]c(-c2ccccc2)c1-c1ccccc1
-3%	Cc1ccccc1OCCN1C(=O)c2ccccc2C1=O
-7%&-17%	COCCNC(=O)CCSc1nc(-c2ccc(OC)cc2)cc(C(F)(F)F)n1
-2%	CC(C)CC(=O)N=C1SC2CS(=O)(=O)CC2N1Cc1ccccc1 (centres undefined)
1%	CC(=O)N1c2ccc(S(=O)(=O)NCCc3cccc(C)c3)cc2CC1C (centres undefined)
4%	N#CCC(=O)Nc1ccc(C(=O)OCC(=O)c2ccc3c(c2)OCO3)cc1
4%	CCOc1ccc(NC(=O)NC2CCCc3ccccc32)cc1 (centres undefined)
-9%	CCCCN(C(=O)c1cc2ccccc2o1)c1c(N)n(CCC)c(=O)[nH]c1=O
-1%	CC1(C)CC(=O)C(N=Nc2cc3c(cc2[N+](=O)[O-])OCCO3)=C(O)C1
9%	COc1ccc(S(=O)(=O)N2CCN(C3CC4CCC3C4)CC2)cc1 (centres undefined)
-9%	Fc1ccc(-c2cc(C(F)(F)F)nc(NCC3CCCO3)n2)cc1 (centres undefined)
9%	CC1=C(C(=O)NCc2ccccn2)C2(CCC(C)CC2)OC1=O (centres undefined)
-11%	COc1ccc(OC)c(NC(=O)C2CCN(S(C)(=O)=O)CC2)c1
-12%	OC1COC(c2ccccc2)OC1C1OC(c2ccccc2)OCC1O (centres undefined)

# Some of the entries above in a different format.
molecule	VDR inhibitor
CC1=C(C(=O)NCc2ccccn2)C2(CCC(C)CC2)OC1=O (centres undefined)	9%
Fc1ccc(-c2cc(C(F)(F)F)nc(NCC3CCCO3)n2)cc1 (centres undefined)	-9%
CCCCN(C(=O)c1cc2ccccc2o1)c1c(N)n(CCC)c(=O)[nH]c1=O	-9%
CC(C)CC(=O)N=C1SC2CS(=O)(=O)CC2N1Cc1ccccc1 (centres undefined)	-2%
